# rRNA inh HTS = selective bacterial rRNA inhibition in E. coli; GFP signal change (wild-type ribosome), % (test concentration not listed); E. coli WT GFP vs humanized-ribosome RFP mutants, fluorescence, 24 h; hits give low values; DMSO median 0, no signal -100; 350,000 tested, 1.6% active;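 active = significant combined selectivity score with lowered wild-type GFP, culture density cut under 30%, mutant RFP and density less affected; inactive = any of these conditions unmet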; also: one replicate is shown; some compounds called inactive have numbers as strong as hits
# ALR H2O2 inh = human ALR oxidase inhibition via reduced H2O2; AID 485317; purified ALR, DTT oxidation, H2O2 HRP-luminol luminescence; inhibition, % (no concentration beside the values); P55789; 290,000 tested, 3.8% active;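 active = mean and each replicate at 75% or more; inconclusive = only one of the two met; inactive = neither met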;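 also: stock transfer was 7.5 nL into about 7.5 µL; 0% = neutral wells and 100% = wells with inactivated enzyme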
# Target sequence (P55789 whole entry, looked up): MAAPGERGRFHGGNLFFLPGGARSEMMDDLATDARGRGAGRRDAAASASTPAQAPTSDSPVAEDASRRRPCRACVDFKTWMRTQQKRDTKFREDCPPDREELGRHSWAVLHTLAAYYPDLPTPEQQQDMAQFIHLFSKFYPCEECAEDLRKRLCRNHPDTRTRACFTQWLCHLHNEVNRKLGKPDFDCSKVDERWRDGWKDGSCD
# FGF22 binding = FGF22 (human) thermal shift binding | Q9HCT0 | recombinant FGF22 thermal shift, SYPRO orange fluorescence; percent of sucrose octasulfate shift, DMSO zero | calls only at 9.99 µM | 340,000 tested, 1.5% active | AID 651658;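 active = melting point raised past a set limit in the mean and every replicate; inconclusive = no clear call; three in four hits are not shown here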
# Target sequence (Q9HCT0 whole entry, looked up): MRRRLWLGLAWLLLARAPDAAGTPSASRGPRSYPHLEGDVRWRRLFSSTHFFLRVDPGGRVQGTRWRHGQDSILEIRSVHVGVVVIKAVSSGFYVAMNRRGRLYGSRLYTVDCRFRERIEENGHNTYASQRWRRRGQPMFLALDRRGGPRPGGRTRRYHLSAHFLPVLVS
# Vif TR-FRET = inhibitors of Vif binding to APOBEC3G peptide, primary screen, biochemical, TR-FRET, GST-Vif 1-94, biotin-A3G peptide, dose response retest (AID 1117319); TR-FRET GST-Vif / biotin-A3G peptide binding; higher % means a stronger effect; test concentration not given here; strong numbers were not always called active; inhibition, %, or IC50 in µM where a hit was titrated; 260,000 tested, 0.57% active;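 active = above the screen mean plus three standard deviations and confirmed in dose response; inconclusive = results disagree or hit not tested in dose response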;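 also: Vif residues 1-94 fused to GST binding biotinylated APOBEC3G peptide 110-148; 0% = full assay without inhibitor and 100% = GST in place of GST-Vif; retest series ran down from 100 µM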
# Ecoli growth = E. coli growth inhibition. Escherichia coli growth, OD600, 23 h; hits give low values. OD600 absorbance (concentration not given with the values). AID 1053175. 330,000 tested, 0.21% active;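 active = OD600 absorbance below the run mean of sample wells minus 3.6 SD, in any replicate, cut at about 0.56 in these data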;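 also: stock transfer was 300 nL into about 60 µL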
# HNF4A DNA FP = change in binding of human HNF4 alpha to DNA; P41235; HNF4a-FITC DNA binding, fluorescence polarization, 1 h; activity change, % at 10 µM; 360,000 tested, 0.3% active; in the data active = activity change above about 30%, passing the limit was not always enough;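 also: controls were the assay level and a saturating level of protein; the project sought stronger binding though the title names inhibitors; some compounds called inactive have numbers as strong as hits; positive values seem to mean higher polarization but the record does not say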
# MLL AF4-AF9 inh = inhibitors of human MLL-AF4/AF9 interaction; P42568; AlphaScreen, biotin-AF4 peptide binding to FLAG-AF9; inhibition, % at 10 µM; 350,000 tested, 0.47% active;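 active = every replicate reaching a set inhibition limit, whatever the replicate mean, cut at about 25% in these data; inconclusive = mean inhibition reaches that limit but some replicates miss it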;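 also: 0% = plate neutral control median and 100% = total signal loss; the record names both 10 and 1 µM as test concentration; the first replicate is given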
# Target sequence (P42568 whole entry, looked up): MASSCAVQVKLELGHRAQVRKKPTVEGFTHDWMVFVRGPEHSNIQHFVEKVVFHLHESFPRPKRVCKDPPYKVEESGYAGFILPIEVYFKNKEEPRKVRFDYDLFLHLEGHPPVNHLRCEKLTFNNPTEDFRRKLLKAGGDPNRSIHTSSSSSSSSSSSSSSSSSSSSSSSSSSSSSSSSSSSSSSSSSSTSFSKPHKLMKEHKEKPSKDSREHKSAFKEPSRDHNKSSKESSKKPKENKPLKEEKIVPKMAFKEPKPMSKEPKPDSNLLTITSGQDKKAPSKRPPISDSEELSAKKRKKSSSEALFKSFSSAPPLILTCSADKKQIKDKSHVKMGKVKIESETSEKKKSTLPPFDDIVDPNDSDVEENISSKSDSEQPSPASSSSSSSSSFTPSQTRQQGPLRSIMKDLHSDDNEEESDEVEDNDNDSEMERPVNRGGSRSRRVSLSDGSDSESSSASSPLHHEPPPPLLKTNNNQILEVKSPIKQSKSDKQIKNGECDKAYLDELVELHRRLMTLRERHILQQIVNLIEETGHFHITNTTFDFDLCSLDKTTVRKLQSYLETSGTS
# rRNA inh HTS OD600 = also measured in rRNA inh HTS; calls as there; OD600 change, %; measured here: OD600 growth;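 optical density of the mix in the first replicate; 0 = DMSO median and -100 = no signal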
# rRNA inh HTS RFP = recorded beside rRNA inh HTS, whose call it bears; RFP signal change, %; measured here: RFP humanized mutant strains;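 first replicate; 0 = DMSO median and -100 = no signal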
# * marks the source's active call; other numbers are inactive results; i = inactive; u = inconclusive; x = no result given; + = active, no number. Only part of the results is shown, so the mix of outcomes need not match the whole.
SMILES,rRNA inh HTS,rRNA inh HTS OD600,rRNA inh HTS RFP,ALR H2O2 inh,FGF22 binding,Vif TR-FRET,Ecoli growth,HNF4A DNA FP,MLL AF4-AF9 inh
C[C@@H](NC(=O)[C@H]1[C@H](CO)[C@H]2Cn3c(ccc(-c4cccnc4)c3=O)[C@@H]1N2C)c1ccccc1,3,1,0.4,x,i,x,x,x,0.7
Cc1ccccc1NC(=S)Nc1ccccc1,16,12,1.9,x,i,x,0.65,-1.1,-2.2
C[C@@H]1CN([C@H](C)CO)C(=O)c2cc(NC(=O)Nc3ccc(C(F)(F)F)cc3)ccc2O[C@@H](C)CCCCO[C@@H]1CN(C)Cc1ccncc1,6,3,1.0,x,i,x,x,x,-0.9
NNc1nc2c(-c3ccc(Cl)cc3)nnn2c2ccccc12,-22,10,27,x,i,-3%,0.69,39*,-3.5
COCCNC(=O)C1c2cc(OC)c(OC)cc2C(=O)N(C)C1c1cccnc1 (centres undefined),x,x,x,x,x,-11%,0.71,-2.4,x
CO[C@@H]1CN(C)C(=O)c2cc(NC(C)=O)ccc2OC[C@H](C)N(CC2CC2)C[C@@H]1C,3,8,-2.4,x,i,x,x,x,-0.9
Cc1cc(C)n2nc(CC(=O)NNC(=O)c3ccccc3Cl)nc2n1,4,6,-0.3,0,i,-1%,0.67,0.9,-5.1
Cc1c(/C(O)=C2\C(=O)C(=O)N(CCN(C)C)C2c2ccccc2)cnn1-c1ccccc1 (centres undefined),-2,-5,-0.3,1,i,-6%,0.68,0.7,0.9
CN(C)CCC#CC(O)(c1ccccc1)c1ccccc1,x,x,x,-13,x,5%,0.67,1.9,x
COc1ccc(NC(=O)COC(=O)c2c(C)noc2C)c(OC)c1,x,x,x,-27,x,-1%,0.69,-2.2,x
COc1ccc(-c2cn(Cc3ccc(C)cc3)nn2)cc1,9,10,-1.8,1,i,x,0.69,1.8,8.2
O=C1/C(=C/c2ccccn2)SC(=S)N1CCc1ccccc1,3,4,0.3,-1,+,5%,0.66,4.8,-0.6
C[C@@H]1CN([C@@H](C)CO)C(=O)c2cc(C#C[C@@H](C)O)cnc2O[C@@H]1CN(C)C(=O)CC1CC1,-1,4,-1.4,x,i,x,x,x,-1.3
COCC(=O)N1C[C@H]2[C@@H](c3ccccc31)[C@H](CO)N2C(=O)Nc1ccccc1Cl,4,0,-2.7,x,i,x,x,x,0.4
CN1CCN(CCCC(=O)c2ccc(C3CCCC3)cc2)CC1,5,-6,-3.4,-4,i,-3%,0.65,8.5,17
CCn1c(SCC(=O)N2CCCC2=O)nnc1-c1cccs1,6,13,-1.2,3,i,-1%,0.67,-2.6,-5.5
CC(C)(C)C(=O)Nc1cc2nn(-c3ccccc3)nc2cc1Cl,x,x,x,x,x,-12%,0.72,5.4,x
CN(C(=O)CSc1nnc(COc2ccccc2F)n1N)C1CCS(=O)(=O)C1 (centres undefined),10,16,0.5,-24,i,1%,0.68,-0.2,-20
CCOc1cc(S(=O)(=O)NCc2ccncc2)ccc1Cl,-14,-29,-4.5,-39,i,0%,0.69,-1.9,-3.4
O=C(/C=C/c1ccc(S(=O)(=O)N2CCOCC2)cc1)Nc1cc(F)ccc1F,-4,-5,3.0,-2,i,-12%,0.68,1.9,1.0
N=c1ccn2c(n1)OC1C(O)C(CO)OC12 (centres undefined),12,23,0.3,-3,i,-5%,x,0.8,-0.8
CCOc1ccc(S(=O)(=O)N(CC(=O)NC2CCCC2)c2ccc(F)cc2)cc1,1,-6,3.2,-5,i,3%,0.66,4.4,0.1
CC(CCc1ccccc1)NC(=O)COC(=O)C1CCC(C(C)(C)C)CC1 (centres undefined),-9,-14,3.9,-2,i,9%,0.72,-3.6,-5.9
COCc1cn(CC[C@H]2CC[C@@H](NC(=O)c3ccccc3)[C@@H](CO)O2)nn1,2,-2,-3.2,x,i,x,x,x,0.2
COc1ccc(-c2cc(C(=O)N3CCc4ccccc4C3)no2)cc1,-26*,-11*,2.2*,-4,i,-5%,0.68,3.1,-2.8
Cc1ccc(C(=O)Nc2cc(=O)n(C)c(=O)n2C)o1,x,x,x,-6,x,2%,0.73,13,x
Cc1ccc(NC(=O)N2CCCCC2)cc1[N+](=O)[O-],-6,-10,-2.4,-3,i,5%,0.64,-1.3,0.3
CC(C)=CCC[C@H](C)C[C@@H]1Cc2[nH]c(=S)[nH]c(=O)c2[C@@H](c2ccc(F)cc2)O1,-8,-24,-5.6,x,i,x,x,3.8,0.1
O=C(NC(=S)Nc1cccnc1)c1cc2ccccc2o1,x,x,x,-13,x,3%,0.62,1.8,x
COc1ccccc1NC(=O)CSc1ccc2nnc(-c3ccccn3)n2n1,9,4,-0.1,-8,i,x,0.78,-1.9,-6.5

# The last three entries of the part above lead into the next:
SMILES,rRNA inh HTS,rRNA inh HTS OD600,rRNA inh HTS RFP,ALR H2O2 inh,FGF22 binding,Vif TR-FRET,Ecoli growth,HNF4A DNA FP,MLL AF4-AF9 inh
CC(C)=CCC[C@H](C)C[C@@H]1Cc2[nH]c(=S)[nH]c(=O)c2[C@@H](c2ccc(F)cc2)O1,-8,-24,-5.6,x,i,x,x,3.8,0.1
O=C(NC(=S)Nc1cccnc1)c1cc2ccccc2o1,x,x,x,-13,x,3%,0.62,1.8,x
COc1ccccc1NC(=O)CSc1ccc2nnc(-c3ccccn3)n2n1,9,4,-0.1,-8,i,x,0.78,-1.9,-6.5
Cc1ccccc1CC1(CO)CCCN(C(=O)CCN2CCCO2)C1 (centres undefined),1,0,-0.9,-4,i,x,0.72,0.8,1.3
CC(C)(C)c1cc(=O)n2c(C#N)c(C#N)nc2[nH]1,x,x,x,x,x,-5%,0.71,-0.3,x
C[C@@H]1CN([C@@H](C)CO)C(=O)Cc2cc(NC(=O)c3ccncc3)ccc2O[C@@H]1CN(C)C(=O)Nc1cccc2ccccc12,1,-2,1.0,x,i,x,x,x,-1.1
O=C(COC(=O)c1cccc(NS(=O)(=O)/C=C/c2ccccc2)c1)Nc1ccccc1OC(F)F,x,x,x,-10,x,5%,0.68,6.4,x
NS(=O)(=O)c1ccc(CCNC(=O)CSc2nc3ccsc3c(=O)n2CC(=O)O)cc1,x,x,x,x,i,x,0.73,1.3,-2.1
CCc1nc(C)cn1S(=O)(=O)c1ccc([N+](=O)[O-])cc1,21,9,2.3,-7,i,0%,0.68,-1.1,-2.2
O=C(Nc1ccc2c(c1)[C@@H]1C[C@H](CC(=O)N3CCOCC3)O[C@@H](CO)[C@@H]1O2)NC1CCCCC1,2,11,-1.5,x,i,x,x,x,0.6
COC(=O)[C@]1(Cc2ccccc2)N[C@H](CN(C)C(=O)Nc2ccccc2)[C@@H]2C(=O)N(Cc3ccccc3)C(=O)[C@@H]21,-6,-5,32,x,i,6%,0.7,2.9,0.9
O=S(=O)(NNc1cccc(Cl)n1)c1ccc(Cl)cc1,-4,0,3.2,x,i,5%,0.67,1.0,-4.9
COc1ccccc1NCC(=O)N/N=C/c1c(O)ccc2ccccc12,7,4,3.4,-14,i,-4%,x,25,-0.9
Cn1c(CCNC(=O)c2ccccc2)nc2cc(NC(=O)C3CCCCC3)ccc21,x,x,x,-2,x,3%,0.69,-0.4,x
C[C@H]1CN([C@@H](C)CO)C(=O)Cc2cc(NS(=O)(=O)c3cn(C)cn3)ccc2O[C@H]1CN(C)S(C)(=O)=O,0,9,-2.3,x,i,x,x,x,-1.9
COC(=O)CSc1nnc(NC(=O)c2ccc3c(c2)OCO3)s1,22,18,1.4,-8,i,u,0.72,0.3,-1.8
COc1ccc(COc2cc(-c3cccc(OC)c3)nc3ccc(NC(=O)c4cccnc4)cc23)cc1,6,7,-0.6,-11,i,u,0.67,4.7,-0.6
CCOC(=O)C1=C(CN2CCN(C(=O)c3ccco3)CC2)NC(=O)NC1c1ccc(OC)cc1 (centres undefined),3,2,2.6,-5,i,x,0.71,-0.6,-0.6

# Part of the list above with just FGF22 binding.
SMILES	FGF22 binding
CCOc1cc(S(=O)(=O)NCc2ccncc2)ccc1Cl	i
CCn1c(SCC(=O)N2CCCC2=O)nnc1-c1cccs1	i

# Further compounds.
SMILES,rRNA inh HTS,rRNA inh HTS OD600,rRNA inh HTS RFP,ALR H2O2 inh,FGF22 binding,Vif TR-FRET,Ecoli growth,HNF4A DNA FP,MLL AF4-AF9 inh
O=C(O)c1c(Cl)c(Cl)c(Cl)c(Cl)c1C(=O)N1CCCC1,x,x,x,-16,x,-3%,0.71,-5.0,x
Cc1ccc(S(=O)(=O)NC(C)C(=O)Nc2cccc([N+](=O)[O-])c2)cc1 (centres undefined),12,9,2.2,-4,i,x,0.67,0.3,-0.6
CCOc1cc(C(=O)N/N=C/c2cn(-c3ccccc3)nc2-c2cc3ccccc3o2)cc(OCC)c1OCC,14,5,3.4,x,i,x,x,3.0,8.9
O=C(COC(=O)c1cc2ccccc2oc1=O)Nc1ccc(F)cc1F,12,6,3.2,-6,i,-7%,0.69,-0.3,-8.8
NC(=O)c1ccc(SCC(=O)OCC(=O)N2CCCCC2)c([N+](=O)[O-])c1,-5,3,1.0,x,i,3%,0.62,2.2,1.8
O=C(NCCC1=CCCCC1)C1CCC(=O)N(Cc2ccc(Cl)cc2)C1 (centres undefined),-3,-13,-0.4,-6,i,x,0.72,-1.6,-0.3
CCC(=O)OC1(C)C(=O)C=C2C=C(C3CC3)OC=C2C1=O (centres undefined),16,5,29,x,i,x,0.64,-0.8,-1.8
Cc1ccc(S(=O)(=O)Nc2ccc3c(c2)C(=O)N([C@H](C)CO)C[C@@H](C)[C@H](CN(C)Cc2ccc4c(c2)OCO4)OCCCC[C@@H](C)O3)cc1,2,-4,1.3,x,i,x,x,x,3.8
CC(NC(=O)CSCc1ccc(Br)cc1)c1ccccc1 (centres undefined),-17,-15,-4.7,-3,x,-1%,0.71,2.3,-1.4
CSc1ccc(S(=O)(=O)N2CCC(C(=O)NCc3cccnc3)CC2)cc1,2,8,0.0,-18,i,x,0.7,1.9,1.9
C[C@@H]1CCCCO[C@H](CN(C)C(=O)c2ccccc2)[C@@H](C)CN([C@@H](C)CO)C(=O)c2cc(NC(=O)Nc3ccc(F)cc3)ccc2O1,-6,-1,0.0,x,i,x,x,x,-8.7
COc1ccc(Nc2nc(Nc3ccc(OC)cc3)nc(SC3=NCCS3)n2)cc1,x,x,x,1,x,5%,0.71,-0.6,x
Cc1cccc(N(CC(=O)N2CCCCCC2)S(C)(=O)=O)c1,4,-3,0.1,1,i,-7%,0.68,2.1,-0.5
O=C(c1ccccc1Cl)N1N=C(c2ccc(Br)cc2)CC1c1nc2ccccc2[nH]1 (centres undefined),x,x,x,-1,x,-2%,0.76,-1.0,x
CN(CCc1cnn(C)c1)Cc1cn(C)nc1-c1ccccc1F,6,9,3.9,x,i,13%,0.72,-2.2,-1.6
N#C/C(=C\c1ccc(O)c(O)c1)S(=O)(=O)c1ccccc1,x,x,x,99*,x,9%,0.68,7.1,x
CC(C)CN(C(=O)COC(=O)CN1C(=O)c2ccccc2C1=O)c1c(N)n(Cc2ccccc2)c(=O)[nH]c1=O,5,0,1.8,x,i,-3%,0.64,-0.8,2.6
Cc1nc(N=C(N)N)nc2ccccc12,16,3,-10,1,i,-5%,0.69,2.5,3.9
O=C(Nc1ccc(F)cc1)Nc1ccc2c(c1)[C@@H]1C[C@@H](CC(=O)N3CCOCC3)O[C@H](CO)[C@@H]1O2,1,-4,-2.2,x,i,x,x,x,-6.8

# Assay outcomes deposited in PubChem by several laboratories.
